SARS PLP yeast – qHTS of Yeast-based Assay for SARS-CoV PLP; Potency, µM (doses to about 32.9 µM), inactives show top-dose activity, positive = growth rescue; 330,000 compounds, 0.19% hits; S. cerevisiae expressing SARS-CoV PLpro, growth rescue; control for the full effect not named in the record; active means well fitted rising curve with a large enough effect; inconclusive means small, poorly fitted or top-dose-only effect; inactive means no such curve, though single readings can be large or run the other way; further: 0% is about no effect; nearly all actives have a fitted effect of over 55% in size; growth read by luminescence after 48 h
LASV entry inh – qHTS for Inhibitors of binding or entry into cells for Lassa Virus. Lassa virus pseudotype entry inhibition, cell reporter; control for the full effect not named in the record. Potency, µM (doses to about 37.9 µM), for inactives: at the highest dose activity change, negative = inhibition, usual class: inhibitors. 300,000 compounds, 1.2% hits; active means well fitted inhibition curve with a large enough effect; inconclusive means small, poorly fitted or top-dose-only effect, or effect the other way; inactive means flat fitted curve, though single readings scatter; tested in HEK293 cells; further: on the % scale 0 is the no-effect control and ±100 the full control effect; nearly all actives have a fitted effect of over 50% in size; luciferase read-out
Cruzain Triton – qHTS Assay for Promiscuous and Specific Inhibitors of Cruzain (with detergent); Cruzipain (Trypanosoma cruzi), P25779; purified cruzain, Z-FR-AMC fluorescence, 0.01% Triton; Potency, µM, for inactives: max response, negative = inhibition, hits mostly inhibitors; 200,000 compounds, 0.43% hits;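 further: plate controls were neutral wells for no effect and buffer without enzyme for full effect; nearly all actives have a fitted effect of over 40% in size; top concentration of the series not given in the record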
Target sequence (P25779 123-467 limits assumed): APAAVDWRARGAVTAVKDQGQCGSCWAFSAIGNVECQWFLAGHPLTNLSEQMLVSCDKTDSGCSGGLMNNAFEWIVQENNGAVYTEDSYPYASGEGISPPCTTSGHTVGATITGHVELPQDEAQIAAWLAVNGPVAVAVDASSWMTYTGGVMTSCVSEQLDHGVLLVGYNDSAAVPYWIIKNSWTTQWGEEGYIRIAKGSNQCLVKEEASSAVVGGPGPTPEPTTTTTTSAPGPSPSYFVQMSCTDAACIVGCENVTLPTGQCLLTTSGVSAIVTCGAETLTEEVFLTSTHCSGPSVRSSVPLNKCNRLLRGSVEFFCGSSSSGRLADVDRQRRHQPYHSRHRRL
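Steps: dispense cruzain (1.5 nM final) in acetate buffer pH 5.5 with DTT and 0.01% Triton X-100; pin-transfer compounds; incubate 15 min RT; add Z-FR-AMC (2 uM final); read fluorescence every 30 s, using the 60 s intensity change.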
NS1 inh – qHTS Assay for Inhibitors of Influenza NS1 Protein Function. S. cerevisiae slowed by influenza A NS1, growth recovery by OD600. Potency, µM (series often up to 46.1 µM), for the others: at the top dose activity, positive = more growth. 270,000 compounds, 0.4% hits; active means well fitted rising curve with a large enough effect; inconclusive means small, poorly fitted or top-dose-only effect; inactive means no such curve, though single readings can be large or run the other way; further: nearly all actives have a fitted effect of over 50% in size
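Recovery from NS1-induced slow growth read by OD600 in budding yeast switched to galactose assay medium (pH 6.0, -URA) at 1:100 dilution. Compound 23 nl per well; the matching strain lacking NS1 serves as control.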
Marburg entry inh – qHTS for inhibitors of binding or entry into cells for Marburg Virus; Marburg virus pseudotyped entry inhibition, cell reporter; control for the full effect not named in the record; about a third of the inactives were read at about 46 µM; 300,000 compounds, 1.8% hits; Potency, µM (highest dose often 37.8 µM), inactives show at the top dose activity change, negative = inhibition, hits mostly inhibitors; AID 540276, 2011; active = well fitted inhibition curve with a large enough effect; inconclusive = small, poorly fitted or top-dose-only effect, or effect the other way; inactive = flat fitted curve, though single readings scatter; tested in HEK293 cells; about a fifth of its hits are not listed in these tables; further: on the % scale 0 is the no-effect control and ±100 the full control effect; luciferase read-out
Cruzain inh noDet – qHTS Assay for Promiscuous and Specific Inhibitors of Cruzain (without detergent); Cruzipain (Trypanosoma cruzi), P25779; purified cruzain, Z-FR-AMC fluorescence, no detergent; Potency, µM, without a hit: max response, negative = inhibition, actives largely listed as inhibitors; 200,000 compounds, 2.3% hits;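 further: plate controls were enzyme without inhibitor for no effect and buffer without enzyme for full effect; nearly all actives have a fitted effect of over 40% in size; top concentration of the series not given in the record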
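Purified cruzain at 1.5 nM, pre-incubated 15 min with compound at room temperature in 100 mM sodium acetate pH 5.5, 5 mM DTT, 0.00005% Triton X-100. Reaction started with 2 uM Z-FR-AMC; AMC fluorescence increase over 60 s gives rate.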
RE007 growth inh – qHTS Assay for Inhibitors of the HIV-1 protein Vpr; S. pombe RE007 Vpr strain, BacTiter-Glo ATP luminescence, 24 h; control for the full effect not named in the record; Potency, µM (top dose mostly 92.2 µM), without a hit: top-dose activity change, negative = less growth; 360,000 compounds, 0.21% hits; AID 651644, 2012; active = well fitted falling curve with a large enough effect; inconclusive = small, poorly fitted or top-dose-only effect; inactive = no such curve, though single readings can be large or run the other way;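 further: on the % scale 0 is the no-effect control and ±100 the full control effect; nearly all actives have a fitted effect of over 50% in size; the assay follows cell death caused by Vpr and the record does not say whether a fall means rescue or toxicity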
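Fission yeast RE007 carrying one integrated HIV-1 vpr copy, seeded at OD 0.01 in PMG+AL medium with 23 nL pinned compound. Grown 24 h at 30 degrees; viability read by BacTiter-Glo luminescence after 5 min.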
2A StopGo – High Throughput Screening for Foot and Mouth Disease Virus Antivirals | 410,000 compounds, 1.2% hits | human cells with a luciferase reporter of 2A StopGo recoding; control for the full effect not named in the record | Potency, µM (highest dose often 57.9 µM), inactives show at the top dose signal change, negative = less light; active = well fitted falling curve with a large enough effect; inconclusive = small, poorly fitted or top-dose-only effect; inactive = no such curve, though single readings can be large or run the other way; tested in HEK293T cells; further: on the % scale 0 is the no-effect control and ±100 the full control effect; nearly all actives have a fitted effect of over 45% in size; luciferase light after 4 h
* = called active by the depositor; ? = inconclusive; . = not tested or not shown; [ ] = another dose, or the depositor's remark. Unless noted, the call rests on the fitted dose curve; in most records, active means well fitted curve in the direction sought with a large enough effect; inconclusive means small, poorly fitted or top-dose-only effect, or another doubt; inactive means no such curve, though single readings can be large; an effect the other way counts as inactive or inconclusive. Potency means the concentration at half of the fitted maximal effect.

smiles	Cruzain Triton	Cruzain inh noDet	NS1 inh	LASV entry inh	2A StopGo	SARS PLP yeast	Marburg entry inh	RE007 growth inh
Cc1ccc(C(=O)ON=C2CCN(c3ccc([N+](=O)[O-])cc3)CC2)cc1	-3.2%	32µM*	-36%	0%	3%	-26%	?	-12%
O=C(CSc1ccc(-c2cccs2)nn1)Nc1ccccc1F	.	.	.	1%	6%	1%	-2%[46.1 µM]	-23%
Cc1ccc(-c2noc(CN(C(=O)CCN3C(=O)c4ccccc4C3=O)C(C)C)n2)cc1	3.9%	24%	-56%	?	-7%	-1%	-8%	7%
O=C(C[n+]1ccccc1)N1c2ccccc2Sc2ccccc21	.	.	2%	.	7%	0%	-9%[46.1 µM]	-24%
CCc1ccc(C(C)NC(=O)c2ncn[nH]2)cc1 (stereo not given)	0.5%	11%	7%	-7%	-5%	1%	12%	1%
CCN(CC)C(=O)Cn1cnc([N+](=O)[O-])n1	9.0%	-6%	-3%	10%	.	1%	6%	8%
CCC(=O)N1CCN(CCN=Cc2c(O)n(C)c(=O)n(C)c2=O)CC1	-2.6%	-3%	-2%	11%	24%	2%	-11%	0%
O=C1NCCCC1C(=O)N/N=C/c1cccc(Cl)c1 (stereo not given)	.	.	-2%	5%	14%	-1%	17%[46.1 µM]	-7%
CCOP(=O)(OCC)C(NC(=O)c1ccccc1Cl)=C(Cl)Cl	0.4%	0%	3%	8%	-19%	-1%	1%	-7%
Cc1nc(SCC(=O)N2CCN(C(=O)c3ccco3)CC2)c2c(C)c(C)sc2n1	-5.5%	?	-17%	-18%	?	3%	-12%	-1%
O=C(CN1C(=O)/C(=C\c2ccc(F)cc2)Oc2ccccc21)N1CCN(c2ccccn2)CC1	63%[activator]	-1%	12%	1%	-11%	0%	4%	-5%
COc1cc(NC(=O)Cn2cnc(S(=O)(=O)N3CCc4ccccc43)c2)cc(OC)c1OC	.	.	-14%	4%[46.1 µM]	-12%	0%	-13%[46.1 µM]	11%
C[C@@H](c1ccccc1)N1C[C@H]2CCCN2c2cc(Br)ccc2S1(=O)=O	.	.	.	?	-14%	-7%	.	11%
Cc1ccc(NC(=S)Nc2cc(-c3ccccc3)[nH]n2)cc1Cl	.	.	.	.	1%	-5%	-21%[46.1 µM]	-5%
C/C=C/c1ccc(OCC(=O)OCC(=O)NC2CC2)c(OC)c1	.	.	.	-24%[46.1 µM]	-6%	4%	9%[46.1 µM]	3%
CCCCCC(=O)Nc1cccc(C2=NOC3(C2)C[C@H](C(N)=O)N(C(=O)c2ccccc2C(=O)c2ccccc2)C3)c1 (stereo not given in full)	.	.	-4%	.	-12%	-5%	.	-2%
CC1=C/C(=N\NC(=S)NCCc2ccccc2)CC(C)(C)C1	.	.	-5%	6%[46.1 µM]	4%	-1%	4%[46.1 µM]	-24%
O=C(CC1C(=O)NCCN1Cc1cccc(Oc2ccccc2)c1)NCC1CCOCC1 (stereo not given)	.	.	0%	.	5%	0%	.	-7%
CCCC(=O)NC(c1ccc(OC)c(OC)c1)c1cc(Cl)c2cccnc2c1O (stereo not given)	.	.	1%	?	-1%	7%	10µM*	-27%
CC(=O)N1CCc2c(sc(NC(=O)c3ccc4c(c3)OCCO4)c2C#N)C1	-2.1%	-26%	-37%	.	21%	0%	.	14%
CCN1CCN(c2c(S(=O)(=O)c3ccc(OC)cc3)cnc3cc(OC)c(OC)cc23)CC1	-5.3%	-1%	.	.	-17%	.	?	.
CCCNC(=O)c1ccc(N2CCC3(CC2)CC(c2ccccc2)=NO3)c([N+](=O)[O-])c1	.	.	25%	.	?	-7%	.	39%
CC/C(C)=N/NS(=O)(=O)c1ccc(C)c([N+](=O)[O-])c1	.	.	-43%	?	14%	-1%	2%	-3%
CCOc1ccc2nc(NC(=O)CSc3ccccc3)sc2c1	-10%	-6%	2%	?	32%[activator]	-5%	-28%	-19%
Cc1ccc(C)c(CN2C(=O)NC3(CCCCCC3)C2=O)c1	.	.	-39%	-7%	-26%	-9%	-20%[46.1 µM]	-11%
CC1CCN(c2nc3ccccn3c(=O)c2C=O)CC1	.	.	-2%	.	-5%	0%	.	1%
CCOc1ccccc1N1CCN(C(=O)Nc2ccc(Cl)c(Cl)c2)CC1	1.3%	2%	-2%	.	.	0%	-2%	.
O=C(COC(=O)c1cc(=O)c2ccccc2o1)Nc1ccccc1F	.	.	.	-5%[46.1 µM]	-4%	2%	?	12%
CCCCP(=O)(c1ccccn1)c1ccccn1	3.4%	-8%	1%	?	35%[activator]	17%	21%	3%
Cc1cc(Cl)ccc1NC(=S)NCCC(c1ccccc1)c1ccccc1	-0.5%	?	?	-26%	?	3%	?	-8%

Some of the entries above, reformatted:
The line under a structure holds: Cruzain Triton	Cruzain inh noDet	NS1 inh	LASV entry inh	2A StopGo	SARS PLP yeast	Marburg entry inh	RE007 growth inh
- O=C(CSc1ccc(-c2cccs2)nn1)Nc1ccccc1F
→ .	.	.	1%	6%	1%	-2%[46.1 µM]	-23%
- Cc1ccc(-c2noc(CN(C(=O)CCN3C(=O)c4ccccc4C3=O)C(C)C)n2)cc1
→ 3.9%	24%	-56%	?	-7%	-1%	-8%	7%

Other compounds:
smiles	Cruzain Triton	Cruzain inh noDet	NS1 inh	LASV entry inh	2A StopGo	SARS PLP yeast	Marburg entry inh	RE007 growth inh
Cc1c(C)c2ccc(OCC(=O)N3CCC(C(=O)O)CC3)cc2oc1=O	.	.	-5%	.	-23%	-5%	.	0%
CCOC(=O)C1CCCN(c2c(N3CCc4ccccc4C3)c(=O)c2=O)C1 (stereo not given)	-3.8%	-15%	5%	.	.	-2%	-1%	.
Cc1ccc(-c2nn(-c3ccccc3)cc2C(=O)Nc2cccc(S(=O)(=O)N3CCOCC3)c2)cc1	-4.6%	-12%	6%	-5%	9%	13%	?	6%
O=C(NC1CCCc2ccccc21)C1CCCC1 (stereo not given)	.	.	4%	21%[46.1 µM]	-16%	-1%	-2%[46.1 µM]	4%
CCOC(=O)c1ccc(NC(=O)CSc2ncc(S(=O)(=O)c3ccc(C)c(Cl)c3)c(=O)[nH]2)cc1	28µM*	?	.	-12%[46.1 µM]	3%	.	.	.
COc1ccc(OC)c(C(=O)CSc2nnc(-c3cccnc3)n2C)c1	-0.4%	-5%	14%	11%	-3%	.	-6%	8%
O=C(NCC(c1ccco1)N1CCCC1)c1ccc(-n2cccn2)cc1 (stereo not given)	.	.	.	11%[46.1 µM]	-5%	2%	-7%[46.1 µM]	-23%
CNC(=O)c1ccc2nc(NC(C)=O)sc2c1	2.8%	-1%	3%	24%	.	-6%	-18%	10%
BrCC(Br)C1CCC(Br)C(Br)C1 (stereo not given)	0.0%	-2%	.	.	-2%	1%	.	2%
CCOCCCN(C(=O)c1snc(C(N)=O)c1N)C(C(=O)NC1CCCC1)c1ccc(O)c(OC)c1 (stereo not given)	.	.	18%	?	3%	1%	8%[46.1 µM]	1%
CC(C)(CNS(=O)(=O)c1ccc(Cl)cc1)N1CCCCC1	1.2%	1%	-6%	11%	.	-9%	-2%	3%
CCNC(=O)CC1SC(=Nc2cccc3ccccc23)N(C)C1=O (stereo not given)	-0.9%	0%	0%	-21%	-24%	-4%	1%	2%
COCCNC(=O)CN(C(=O)Cn1nnc2ccccc21)c1cc(C)cc(C)c1	.	.	4%	-10%[46.1 µM]	30%	1%	1%[46.1 µM]	-8%
CC(=O)Nc1ccc(-c2csc(NC(=O)CN3C(=O)NC4(CCCC4)C3=O)n2)cc1	.	.	.	1%	-20%	1%	2%	-25%
Brc1ccc(CSc2ccc3nnc(-c4cccnc4)n3n2)cc1	.	.	.	?	32µM*	-9%	?	1%
COc1cc(NC(=O)C2CCCN2C(=O)OCc2ccccc2)cc(OC)c1 (stereo not given)	-5.3%	3%	-11%	-18%	0%	1%	-1%	-11%
CCOc1ccccc1CNC(=O)CSc1n[nH]c(-c2ccccc2Cl)n1	-2.1%	-1%	.	-25%[46.1 µM]	-13%	.	.	.
O=C(NCCc1ccc(F)cc1)N1CCOCC1	1.2%	0%	24%	18%	0%	1%	3%	27%
O=C(COc1ccccc1)Nc1nnc(-c2ccccc2Cl)o1	.	.	.	11%	22%	.	19%	2%
CC(=O)c1nnn(-c2cccc(C#N)c2)c1C	.	.	4%	-6%	-3%	2%	6%	-7%

Four compounds drawn at random from those above, as already listed:
smiles	Cruzain Triton	Cruzain inh noDet	NS1 inh	LASV entry inh	2A StopGo	SARS PLP yeast	Marburg entry inh	RE007 growth inh
O=C(NCCc1ccc(F)cc1)N1CCOCC1	1.2%	0%	24%	18%	0%	1%	3%	27%
CNC(=O)c1ccc2nc(NC(C)=O)sc2c1	2.8%	-1%	3%	24%	.	-6%	-18%	10%
CCOC(=O)C1CCCN(c2c(N3CCc4ccccc4C3)c(=O)c2=O)C1 (stereo not given)	-3.8%	-15%	5%	.	.	-2%	-1%	.
COc1ccc(OC)c(C(=O)CSc2nnc(-c3cccnc3)n2C)c1	-0.4%	-5%	14%	11%	-3%	.	-6%	8%
